Sfp PPTase inh: qHTS Assay for Inhibitors of Bacillus subtilis Sfp phosphopantetheinyl transferase (PPTase). Potency, µM, for the others: max response, negative = inhibition, hits mostly inhibitors. actives 3.5% (n = 310,000). Biochemical Sfp PPTase activity, qHTS. 4'-phosphopantetheinyl transferase ffp (Bacillus subtilis), Q9F4F7; active means well fitted inhibition curve with a large enough effect; inconclusive means small, poorly fitted or top-dose-only effect, or another doubt; inactive means no such curve, though single readings can be large or run the other way;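 further: the enzyme is Sfp with the accession as filed and its product quenches rhodamine fluorescence; potency means the concentration at half of the fitted maximal effect; 0% = enzyme reaction without inhibitor and -100% = no enzyme wells; top concentration of the series not given in the record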
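Fluorescence-quenching assay: 15 nM Sfp-PPTase preincubated 15 min at room temperature with compound, then 5 uM rhodamine-CoA and 12.5 uM BHQ-2-labelled YbbR peptide added. Fluorescence (ex 525/em 598 nm) read at start and after 30 min; difference gives rate.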
PINK1 expr mod: A Quantitative High throughput Screen to Identify Chemical Modulators of PINK1 Expression. PINK1 immunofluorescence, high-content cytometry, 24 h. Potency, µM (series often up to 76.6 µM), for the others: at the highest dose activation (PINK1 increase), hits mostly activators. actives 0.2% (n = 410,000). AID 624263, 2012; active = well fitted activation curve with a large enough effect; inconclusive = small, poorly fitted or top-dose-only effect; inactive = flat fitted curve, though single readings scatter; cell line not stated here;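 further: potency means the concentration at half of the fitted maximal effect; % of control where 0% means no effect; nearly all actives have a fitted effect of over 65% in size; a mitochondrial uncoupler was the plate control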
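Measures PINK1 amount and localization on or inside mitochondria by immunofluorescence. Stable cells get compounds at 5 concentrations for 24 hours before fixation and staining; CCCP controls included.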
gsp ag: qHTS for Agonist of gsp, the Etiologic Mutation Responsible for Fibrous Dysplasia/McCune-Albright Syndrome: qHTS; gsp mutant cells, cAMP HTRF, 30 min; control for the full effect not named in the record; Potency, µM (highest dose often 76.9 µM), without a hit: at the highest dose activation (cAMP increase), actives largely listed as activators; actives 0.13% (n = 340,000); active = well fitted activation curve with a large enough effect; inconclusive = small, poorly fitted or top-dose-only effect, or another doubt; inactive = no such curve, though single readings can be large or run the other way; cell line not stated here;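 further: phosphodiesterase inhibitor Ro 20-1724 added with compounds to block cAMP breakdown; potency means the concentration at half of the fitted maximal effect; nearly all actives have a fitted effect of over 60% in size; about a fifth of the inactives were tested at one dose only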
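Cells in DMEM/10% FBS with G418 were pretreated with compounds in DMSO plus […] (300 uM stock) for 30 min at 37C. cAMP was measured by HTRF (cAMP-d2 plus anti-cAMP antibody-K) after 30 min at room temperature.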
D2 agonist: Beta-Arrestin HTS for Positive Allosteric Modulators of the Human D2 Dopamine Receptor: Agonists; actives 0.084% (n = 360,000); DiscoveRx PathHunter D2 beta-arrestin, luminescence, 90 min; 100% = 57 uM dopamine signal; activation, % (no concentration beside the values); D(2) dopamine receptor (Homo sapiens), P14416; in the data active = activation above about 40%; inconclusive = about 15% to 40%; inactive = below about 15%; further: compound concentration not given in the record; the text of the record calls up to 30% inactive
Target sequence (P14416 whole entry, looked up): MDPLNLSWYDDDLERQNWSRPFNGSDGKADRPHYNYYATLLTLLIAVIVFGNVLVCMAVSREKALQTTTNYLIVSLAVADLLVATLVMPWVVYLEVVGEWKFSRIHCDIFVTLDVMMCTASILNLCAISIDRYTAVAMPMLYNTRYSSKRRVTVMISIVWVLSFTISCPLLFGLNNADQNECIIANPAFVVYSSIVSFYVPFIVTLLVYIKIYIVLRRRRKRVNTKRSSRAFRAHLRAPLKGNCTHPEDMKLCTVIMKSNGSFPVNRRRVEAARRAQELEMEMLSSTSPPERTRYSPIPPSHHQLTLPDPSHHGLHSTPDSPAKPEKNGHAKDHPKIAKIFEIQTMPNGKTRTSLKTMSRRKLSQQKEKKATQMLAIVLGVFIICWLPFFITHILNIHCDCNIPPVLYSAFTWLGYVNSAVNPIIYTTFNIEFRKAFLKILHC
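DiscoveRx PathHunter D2 beta-arrestin cells (2,100/well) attached overnight, then compound-stimulated 90 min at 37 C in HBSS/10 mM HEPES/0.1% Tween-20 buffer; beta-galactosidase complementation read by luminescence after 1 h at ambient temperature. Dopamine 57 uM final (EC100) as control.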
ClpP mod: qHTS Assay for Activators of ClpP | ATP-dependent Clp protease proteolytic subunit (Bacillus subtilis (strain 168)), P80244 | purified B. subtilis ClpP, FRET peptide cleavage, 20 min | AID 651965, 2013 | actives 1.9% (n = 340,000) | Potency, µM (top dose mostly 57.5 µM), for inactives: top-dose activity change, negative = active; active = well fitted falling curve with a large enough effect; inconclusive = small, poorly fitted or top-dose-only effect; inactive = no such curve, though single readings can be large or run the other way; further: potency means the concentration at half of the fitted maximal effect; the source files actives as falling curves though it sought activators and does not explain the sign; nearly all actives have a fitted effect of over 65% in size; many hits overshoot -100%
Target sequence (P80244 whole entry, looked up): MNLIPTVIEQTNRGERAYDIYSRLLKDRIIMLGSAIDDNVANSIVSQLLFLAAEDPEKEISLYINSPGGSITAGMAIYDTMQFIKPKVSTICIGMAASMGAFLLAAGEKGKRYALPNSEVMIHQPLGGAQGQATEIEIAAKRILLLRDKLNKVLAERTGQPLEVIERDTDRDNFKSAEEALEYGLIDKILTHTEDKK
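FRET quenching reversal measured ClpP activation: 10 microg/mL B. subtilis ClpP at pH 8 with the FRET-FV decapeptide, read at 430 nm after 320 nm excitation. The 20-min minus 0-min signal was scaled between DMSO/no-enzyme wells and ADEP (5.8 microM final).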
gsp antag: qHTS for Antagonists of gsp, the Etiologic Mutation Responsible for Fibrous Dysplasia/McCune-Albright Syndrome: qHTS | Potency, µM (highest dose often 76.9 µM), inactives show top-dose activity change, negative = inhibition, hits mostly inhibitors | AID 624288, 2012 | gsp-mutant cells, cAMP HTRF, 30 min; control for the full effect not named in the record | actives 0.4% (n = 340,000); active = falling curve of any shape with a large fitted effect; inconclusive = falling curve, mostly with a smaller effect; inactive = flat or rising curve; cell line not stated here;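 further: intracellular cAMP measured with PDE inhibitor Ro 20-1724 present during compound exposure; potency means the concentration at half of the fitted maximal effect; on the % scale 0 is the no-effect control and ±100 the full control effect; nearly all actives have a fitted effect of over 65% in size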
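G418-selected cells were plated in DMEM/10% FBS for 16-24 h at 37C, then treated with compounds plus the PDE inhibitor […] (300 uM solution added) for 30 min at 37C. Intracellular cAMP was measured by HTRF after 30 min lysis at room temperature.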
Menin-MLL FL inh: qHTS Assay for Inhibitors Targeting the Menin-MLL Interaction in MLL Related Leukemias: Competition With Fluorescein Labeled MLL-derived Peptide; Fluorescence polarization, fluorescein-MLL peptide displacement from menin; FP activity change, % at 61.4 µM; 290,000 tested, under 10 active; inconclusive = falling polarisation curve, or a change in total fluorescence; inactive = total fluorescence flat and polarisation flat or rising; no compound was filed as active; the % refers to the polarisation; negative = inhibition;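 further: % of control where 0% means no effect; inhibitors lower the polarisation; unlabelled MLL peptide was the positive control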
* = called active by the depositor; ? = inconclusive; . = not tested or not shown; & = joins results of further samples; [ ] = remark or other dose.

SMILES	Sfp PPTase inh	PINK1 expr mod	gsp ag	D2 agonist	ClpP mod	gsp antag	Menin-MLL FL inh
CC1(C(=O)NC23CC4CC(CC(C4)C2)C3)CC1(Cl)Cl (configuration not stated)	4%	-0.6%[38.3 µM]	-47%[inhibitor]	-4.7	-1.1%	10%	-1.3
Cc1cc(C(=O)CSc2nn(-c3ccccc3)c(=S)s2)c(C)n1Cc1ccco1	7%	-0.3%[38.3 µM]	1%	-4.4	-0.3%	6%	9.8
O=C(N1CCN(c2ccccc2)CC1)C(F)(F)C(F)(F)F	11%	1.8%[38.3 µM]	15%	-0.3	-0.9%	-4%	1.4
COc1ccc(CCNC(=O)C(=O)c2c(C)n(C)c3ccccc23)cc1OC	15%	0.3%	?	2.4	2.2%	1%	.
CCOn1c(=O)c(C)[n+]([O-])c2ccccc21	15%	0.2%	14%	4.7	-10%	-5%	0.7
Cc1nc2nc(-c3ccccc3)[nH]n2c(=O)c1C	19%	7.2%[38.3 µM]	4%	-3.1	?	-12%	0.7
CCOC(=O)C1=C(CSc2nc(CC)c(C)cc2C#N)OC(N)=C(C#N)C1c1ccccc1 (configuration not stated)	?	-0.5%	?	-2.8	17%	?	15
Nc1nc(SCC(=O)Nc2ccccc2Sc2ccccc2)n[nH]1	-4%	-1.5%[38.3 µM]	6%	-3.8	-1.1%	-2%	-0.3

(next part)
SMILES	Sfp PPTase inh	PINK1 expr mod	gsp ag	D2 agonist	ClpP mod	gsp antag	Menin-MLL FL inh
Cc1cc(C)c(NC(=O)CSc2nnc(-c3ccco3)n2N)c(C)c1	-1%	-2.7%	-25%	-0.7	-1.8%	12%	4.5
Cn1c(SCc2ccccc2)nc2c1c(=O)[nH]c(=O)n2C	7%	-1.0%	77%	-2.7	-0.1%	-13%	-1.3
O=C(COC(=O)/C=C/c1ccc(F)cc1)NCC1CCCO1 (configuration not stated)	.	-0.3%	-24%	1.6	-0.4%	2%	.
COc1ccccc1N1CCN(S(=O)(=O)c2ccc(-c3ccc(=O)[nH]n3)o2)CC1	17%	0.1%	36%	1.5	0.2%	-7%	2.9
CCOC(=O)c1ccc(NC(=O)c2ccc3c(c2)C(=O)N(CC2CCCO2)C3=O)cc1 (configuration not stated)	3%	1.0%	-19%	-2.6	26%	32µM*	.
COc1cc(NC(=O)CSc2nnc3ccccn23)cc(OC)c1	.	2.7%	?	-3.8	-7.2%	-2%	.
Cc1cc(C)cc(Oc2c(C(F)(F)F)oc3cc(OCC(=O)O)ccc3c2=O)c1	6%	2.6%	-2%	3.1	-9.6%	-1%	0.2
COc1ccc(OC)c(S(=O)(=O)Nc2cccc3ccc(O)cc23)c1	.	-0.9%	-17%[15.4 µM]	-0.7	-18%	-3%	.

Limited to ClpP mod, gsp ag and PINK1 expr mod (3 entries from above):
canonical_smiles,ClpP mod,gsp ag,PINK1 expr mod
Cc1cc(C)c(NC(=O)CSc2nnc(-c3ccco3)n2N)c(C)c1,-1.8%,-25%,-2.7%
Cn1c(SCc2ccccc2)nc2c1c(=O)[nH]c(=O)n2C,-0.1%,77%,-1.0%
O=C(COC(=O)/C=C/c1ccc(F)cc1)NCC1CCCO1 (configuration not stated),-0.4%,-24%,-0.3%

(more compounds)
SMILES	Sfp PPTase inh	PINK1 expr mod	gsp ag	D2 agonist	ClpP mod	gsp antag	Menin-MLL FL inh
COCCCn1c(C(=O)N2CCOCC2)cc2c(=O)n3ccccc3nc21	19%	0.1%	?	6.6	3.7%	10%	3.4
COc1cc(C(=O)COC(=O)C2CCN(c3ccc(C(F)(F)F)cn3)CC2)ccc1OC(F)F	.	4.5%	13%	-0.3	-3.2%	7%	.
O=C(c1ccco1)N1CCN(S(=O)(=O)c2ccc(S(=O)(=O)NC3CC3)cc2)CC1	0%	.	-44%[inhibitor]	-0.8	-8.3%	-6%	3.5
CCCCCC1CC(CC(=O)Nc2ccc([N+](=O)[O-])cc2)OC1=O (configuration not stated)	1%	-1.8%	9%[15.4 µM]	-1.5	-1.5%	10%	1.8
CC(=O)c1ccc(NC(=O)CC2S/C(=N/N=C3CCCCCC3)NC2=O)cc1 (configuration not stated)	5%	0.3%	?	-0.5	-2.2%	-16%	5.4
COc1ccc(C2=C/C(=C\c3cccc(OC(C)=O)c3)C(=O)O2)cc1	-77%	-0.2%	-47%[inhibitor]	-8.6	-7.0%	1%	?
Cc1c(NC(=O)CSc2ccc3c(c2)OCCO3)c(=O)n(-c2ccccc2)n1C	20%	-2.2%	-6%	-1.0	-0.5%	-2%	0.6
CCOC(=O)C1CCN(S(=O)(=O)c2cc(F)ccc2OC)CC1	4%	-0.9%	-12%	3.1	.	-1%	-0.4

(cont.)
SMILES	Sfp PPTase inh	PINK1 expr mod	gsp ag	D2 agonist	ClpP mod	gsp antag	Menin-MLL FL inh
CSCCC(NC(=O)c1ccccc1)C(=O)Nc1ccc(C)cc1 (configuration not stated)	0%	-1.0%	?	-4.1	-2.2%	-5%	-0.2
NC(=O)[C@@H]1CCCN1C(=O)c1ccc2nc(Cc3cccc(Cl)c3)oc2c1	17%	0.6%	-5%	-0.2	-1.4%	6%	.
COc1cc(NC(=S)NN2CCN(C)CC2)cc(OC)c1OC	-19%	3.0%	17%	5.3	.	8%	-0.4
O=C(CCCn1cnc([N+](=O)[O-])n1)Nc1cccc(Cl)c1Cl	-14%	-2.1%	-3%	7.3	-2.9%	3%	8.2
COc1cccc(/C=C/C(=O)Nc2ccc3c(c2)OCCO3)c1OC	14%	2.6%	-16%[15.4 µM]	0.1	?	3%	1.0
CCOC(=O)CC1(NC(=O)C2CCC(=O)N(Cc3ccccc3OC)C2)CCCCC1 (configuration not stated)	17%	-1.1%	8%	-1.8	1.0%	0%	.
c1csc(C(c2nnnn2C2CCCCC2)N2CCCC3(CCCCC3)C2)c1 (configuration not stated)	5%	5.7%	-10%	-1.8	0.7%	6%	1.0
COc1ccc(N2C(=O)CC(c3cc(OC)c(OC)c(OC)c3)CC2=O)cc1	28%	4.0%	16%	4.0	.	?	-0.4

Further results follow:
SMILES	Sfp PPTase inh	PINK1 expr mod	gsp ag	D2 agonist	ClpP mod	gsp antag	Menin-MLL FL inh
CCOc1ccc(Cn2c(C)nc([N+](=O)[O-])c2SCC(O)CCl)cc1[N+](=O)[O-] (configuration not stated)	13%	2.4%[38.3 µM]	-1%	1.4	1.2%	-1%	3.4
C[C@@H](NC(=O)/C(C#N)=C/c1ccc(O)c(O)c1)c1ccccc1	-28%	2.4%&-0.1%	.	-1.2	-1.2%&1.9%	-21%	?
N#Cc1cc2ccccc2nc1SCC(=O)NC1CC1	-1%	1.4%	4%[15.4 µM]	0.0	.	-1%	6.3
COc1ccc(C2=CC(c3c(C)nn(-c4ccccc4)c3Cl)n3nnnc3N2)cc1OC (configuration not stated)	-2%	-4.7%	-18%	-3.4	-14%	-16%	?
CCn1c(/C(C#N)=C(\O)CCc2ccccc2)nc2ccccc21	14%	9.3%	-22%	0.8	-9.9%	3%	2.4
CSC(=S)NCc1cccnc1	13%	9.7%	9%	-0.3	.	5%	2.9
Cc1ccc(N/N=C(\C#N)C(=N)N2CCOCC2)cc1	3%	0.9%	-38%[inhibitor]	0.6	.	-19%	6.4
CCC1CCCCN1S(=O)(=O)c1ccccc1[N+](=O)[O-] (configuration not stated)	5%	5.2%	0%[15.4 µM]	-3.2	.	-1%	0.1

Later entries:
SMILES	Sfp PPTase inh	PINK1 expr mod	gsp ag	D2 agonist	ClpP mod	gsp antag	Menin-MLL FL inh
CCCCCC(=O)Nc1cccc(C2=NOC3(C2)C[C@@H](C(N)=O)N(C(=O)c2cc([N+](=O)[O-])cc([N+](=O)[O-])c2)C3)c1 (some centres not stated)	-1%	1.1%	7%	14	0.2%	-9%	3.9
CCn1c(N2CCN(CC(=O)c3c(C)n(C)c4ccccc34)CC2)nc2c1c(=O)[nH]c(=O)n2C	18%	-1.3%	?	2.2	0.9%	-5%	2.2
CCCCn1c(SCC2CCCCO2)nc2cc(S(N)(=O)=O)ccc21 (configuration not stated)	-7%	-2.9%	-14%	-1.1	0.9%	5%	-1.8
N#CC1=C(SCc2ccccc2Cl)NC(=O)C(C(N)=O)C1 (configuration not stated)	4%	1.2%[38.3 µM]	2%	-1.4	-2.1%	-11%	5.0
Cc1cc(Sc2nnc(N)s2)c2ccccc2n1	10%	-4.2%	4%	-3.8	0.7%	7%	-1.3
Cc1c(OCC(=O)N(C)c2ccccc2)ccc2c3c(c(=O)oc12)CCC3	6%	1.1%	28%	0.0	.	-19%	1.2
CCCCS(=O)(=O)N1CCCC(C(=O)NCCc2ccccc2)C1 (configuration not stated)	-3%	0.5%	-18%	1.8	-1.3%	9%	-0.1
Cc1ccc(OC(=O)c2cncc(Br)c2)c(C)c1	-4%	6.8%	-29%	-5.2	-0.6%	2%	-5.9

Carrying on:
SMILES	Sfp PPTase inh	PINK1 expr mod	gsp ag	D2 agonist	ClpP mod	gsp antag	Menin-MLL FL inh
COC(=O)c1c(C)[nH]c(C(=O)OC(C)C(=O)NC2CCCCC2C)c1C (configuration not stated)	.	12%	36%	-2.8	-3.2%	.	.
COc1ccccc1NC(=O)Nc1c(C)nn(C)c1C	9%	1.8%	11%[15.4 µM]	-12	.	-4%	4.3
O=[N+]([O-])c1ccc(-c2csc(COc3ccccc3)n2)cc1	.	3.4%	?	-5.4	0.3%	.	.
COc1ccc2[nH]c3nc(SCc4nnc(-c5ccccc5)o4)nnc3c2c1	-2%	?	-19%	-0.3	5.2%	9%	2.1
CC(C)(C)c1ccc(C(=O)NN2C(=O)CSC2=S)cc1	-18%	0.4%	28%	-3.6	-1.4%	-22%	?

Source: PubChem BioAssay
